# Screens (PubChem)
# 2A Renilla: lowers the Renilla signal of an FMDV 2A StopGo reporter; HEK cells with a luciferase reporter of 2A StopGo recoding; AID 1745857; actives 0.32% (n = 120,000); Potency, µM (series often up to 57.5 µM), inactives show at the top dose signal change, negative = less light; active means well fitted falling curve with a large enough effect; inconclusive means small, poorly fitted or top-dose-only effect; inactive means no such curve, though single readings can be large or run the other way; further: nearly all actives have a fitted effect of over 55% in size; overnight with compound
# StopGo FLuc: lowers the firefly signal of an FMDV 2A StopGo reporter; actives 0.23% (n = 120,000); Potency, µM (top dose mostly 57.5 µM), for inactives: top-dose signal change, negative = less light; HEK cells with a luciferase reporter of 2A StopGo recoding; AID 1745856; active = well fitted falling curve with a large enough effect; inconclusive = small, poorly fitted or top-dose-only effect; inactive = no such curve, though single readings can be large or run the other way; further: nearly all actives have a fitted effect of over 60% in size; overnight with compound
# Numbers without * were called inactive; ? = inconclusive; [ ] = another dose, or the depositor's remark. On the % scale 0 is the no-effect control and ±100 the full control effect; potency means the concentration at half of the fitted maximal effect. Only part of the results is shown (hit frequency here may not be typical).
SMILES,2A Renilla,StopGo FLuc
Cc1ncc(CO)c2c1Oc1nc(-c3ccccc3)nc(SCC(=O)Nc3cccc(C(F)(F)F)c3)c1C2,-15.9%,-14.5%
CCN1CCN(C(=O)CCCN(c2cccc(C)c2)S(C)(=O)=O)CC1,18.6%,1.1%
CCOC(=O)c1[nH]c(C)c(CCC(=O)Nc2ccccc2OCC)c1C,0.9%,-4.5%
Cc1cccc(CSc2nc3cc(C(=O)NC4CCCC4)ccc3c(=O)n2Cc2ccccc2)c1,135.2%[activator],109.9%[activator]
O=C(Nc1ccc(Br)c(Cl)c1)c1ccc(C(=O)Nc2ccc(Br)c(Cl)c2)cc1,-10.4%,3.7%
CCOC(=O)c1[nH]c2ccccc2c1NC(=O)c1ccccc1OCC,85.9%[activator],-13.1%
Cc1cc(C)cc(-c2nnc(SCC(=O)N3CCCC(C)C3)o2)c1 (centres undefined),13.4%,0.0%
Cc1ccc(-n2nc(-c3ccccc3)c3cnc4cc5c(cc4c32)OCO5)cc1C,-9.7%,-19.0%
O=C(CCc1c[nH]c2ccccc12)N1CCC(C(=O)N2CCCCCC2)CC1,-6.9%,2.7%
CC(C)Cc1nn2c(=O)cc(COC(=O)c3ccc(NC(=O)C4CCCCC4)cc3)nc2s1,-9.5%,2.2%
CCOc1ccc(-c2c(C)nn3c(C)c(C(=O)NCCc4ccc(Cl)cc4)cnc23)cc1OCC,1.0%,7.0%
Cc1ccc(-c2nc3ccccc3[nH]2)cc1NC(=O)COc1ccccc1[N+](=O)[O-],-4.4%,26.2%
Cc1ccc(NS(=O)(=O)c2ccc(-c3cc(C)no3)cc2)c(Br)c1,-4.0%,-28.0%
S=C(N/N=C/c1c(Cl)cccc1Cl)Nc1ccccc1,40.6%[activator],22.0%
O=C(CN1CCN(c2ccc([N+](=O)[O-])c3cnccc23)CC1)Nc1ccc(F)cc1,?,?
CCOC(=O)Cn1c(=O)n(CC2CCCO2)c2nc(-c3ccc(C(C)C)cc3)nc(C(N)=O)c21 (centres undefined),6.2%,20.4%
COc1ccc(-c2csc(NC3OC(=O)c4c3ccc(OC)c4OC)n2)cc1 (centres undefined),11.1%,22.0%
CCOC(=O)c1oc2c(c1C)-c1nn(Cc3cccc(Cl)c3)cc1CC2,23.3%,0.0%
CC1(C)SC2c3ccccc3C(=O)N2[C@@H]1C(=O)NCc1ccc(Cl)cc1 (some centres undefined),172.9%[activator],-3.0%
O=C(NC1CC1)C(Sc1ccccn1)c1ccccc1 (centres undefined),9.9%,6.5%
O=C(CCc1nc2ccccc2s1)NC1CCCCCCC1,-7.1%,43.4%[activator]
CC1CCC(NC(=O)CN2CCN(c3cccc(F)c3C#N)CC2)CC1 (centres undefined),30.0%,5.7%
CCCCn1cnc2c1c(=O)n(CC(O)COc1ccccc1)c(=O)n2CCC (centres undefined),102.4%[activator],-0.3%
CN(C)c1ccc(CNc2nc(-c3ccco3)nn2C(=O)c2cccc([N+](=O)[O-])c2)cc1,-8.7%,146.5%[activator]
COc1ccccc1N1CCN(S(=O)(=O)c2ccc(F)c(C(=O)Nc3ccc(Cl)cc3C(F)(F)F)c2)CC1,-9.7%,0.0%
CC(NC(=O)c1ccc2c(c1)N(Cc1ccccc1)C(=O)c1ccccc1S2=O)c1ccc2c(c1)OCCO2 (centres undefined),12.0%,2.9%
COc1ccc2nc(Nc3nc(C)c(Cc4cccc(Cl)c4)c(=O)[nH]3)nc(C)c2c1,7.4%,8.4%
COC(=O)c1cccc(NC(=O)c2ccc3c(c2)CCC3)c1,45.2%[activator],75.0%[activator]
CCCN1C(=O)NC(=O)C2(Cc3c(ccc4ccccc34)N(C)C2)C1=O (centres undefined),10.8%,18.8%
Cc1ccc(C)c(N2CCN(C(=O)c3cc4c(=O)n(Cc5ccccc5)ccc4nc3C)CC2)c1,-23.3%,-23.5%
Cc1ccc(C)c(N2CCN(CCCNC(=O)Cn3ncc4c5ccccc5n(C)c4c3=O)CC2)c1,-10.5%,-4.1%
Cc1ccc(NC(=O)c2cncn2-c2ccccc2)cc1S(=O)(=O)Nc1ccccc1F,123.6%[activator],?
COc1ccc(-c2noc(-c3ccc(N4CCC(C)CC4)c([N+](=O)[O-])c3)n2)cc1OC,-2.6%,-7.2%
CCOC(=O)C1CCC(CN(Cc2c(Cl)cccc2Cl)S(=O)(=O)c2ccc(F)c(C)c2)CC1 (centres undefined),7.8%,-16.7%
Cn1c(=O)[nH]c(=O)c2c1nc(SCC(=O)OCc1ccccc1)n2Cc1ccccc1,7.5%,14.8%
CCCc1nnc(C(=O)Nc2ccc(C(=O)N3CCOCC3)cc2)s1,-7.5%,5.5%
CC1CCCC(=O)CCCCCc2cc(O)cc(O)c2C(=O)O1 (centres undefined),?,?
CC(C)C(=O)Nc1ccc(NC(=O)C(C)C)c(Cl)c1,1.2%,0.0%
COc1cc(OC)c(NC(=O)CSC2=Nc3ccccc3N=C(c3ccc(F)cc3)C2)cc1Cl,-13.3%,-5.5%
NC(=O)c1cc(S(=O)(=O)NCc2ccc(Br)cc2)cs1,44.1%[activator],-6.3%
CC1c2cccn2-c2ccccc2CN1C(=O)Nc1ccc(Br)cc1 (centres undefined),27.2%,2.4%
CNC(=O)c1ccc(CNC(=O)C2CCCC2)cc1,4.2%,8.5%
Cc1ccc2c(CN3CCN(S(=O)(=O)c4ccc5c(c4)OCCO5)CC3)cc(=O)oc2c1C,0.0%,?
O=C(Nc1nc(-c2ccc(Cl)cc2)cs1)c1cc(=O)c2ccccc2o1,10.7%,0.0%
C[N+]1(CC2COC(c3ccccc3)(C3CCCCC3)O2)CCCCC1 (centres undefined),-8.0%,-10.5%
CCCc1cc(=O)n2nc(N(C)CC(=O)Nc3cccc(Cl)c3C)sc2n1,11.7%,6.0%
CCOC(=O)c1cc(CC)sc1NC(=O)CC1Sc2ccccc2NC1=O (centres undefined),43.0%[activator],79.2%[activator]
CC1=C(C(=O)Nc2cc(Cl)ccc2C)C(c2ccco2)n2ncnc2N1 (centres undefined),-16.7%,-22.8%
Cc1cc(C)cc(OCC(=O)Nc2cccc(-c3nc4ccccc4[nH]3)c2)c1,30.1%[activator],91.1%[activator]
Cc1ccc(NCc2nc3ccccc3n2CCOc2ccccc2C)cc1,55.0%[activator],31.5%[activator]
COCC(C)n1c(C)cc(C(=O)Cn2cnc3scc(-c4ccc(C)s4)c3c2=O)c1C (centres undefined),5.0%,38.8%[activator]
Cc1ccc(OCC(=O)Nc2ccc(OCc3cc(=O)n4c(C)csc4n3)cc2)cc1C,-0.7%,-3.7%
O=C(CN1CCN(c2ccc(F)cc2)CC1)N1N=C(c2cc3ccccc3o2)CC1c1ccco1 (centres undefined),-13.8%,12.3%
CCOc1ccc(CCNC(=O)C2=C(C)C(=O)OC23CCCCC3)cc1,5.2%,21.2%
CCOc1cc(CNC(=O)c2ccccc2NC(=O)c2nsc3ccccc23)ccc1OC,9.7%,44.0%[activator]
COc1ccccc1CNC(=O)c1cnc(N(C)C)nc1,23.3%,28.3%
Cc1ccc(S(=O)(=O)N(CC(=O)NCCSc2ccc(Cl)cc2)c2cccc(Cl)c2)cc1,41.0%[activator],-17.2%
CCc1ccc(NC(=O)c2nc3nc(C)cc(C(F)F)n3n2)cc1,-4.3%,28.3%
COc1ccccc1C(=O)NCCn1cc(SCc2ccc(C)cc2)c2ccccc21,0.8%,-18.0%
Cc1ccc(Cn2c(=O)n(CCCC(=O)NCc3ccccc3Cl)c(=O)c3ccccc32)cc1,-9.2%,?

# 2 compounds picked at random from those above:
SMILES,2A Renilla,StopGo FLuc
Cc1ccc(NCc2nc3ccccc3n2CCOc2ccccc2C)cc1,55.0%[activator],31.5%[activator]
Cn1c(=O)[nH]c(=O)c2c1nc(SCC(=O)OCc1ccccc1)n2Cc1ccccc1,7.5%,14.8%

# The list continues:
SMILES,2A Renilla,StopGo FLuc
c1ccc(-c2nnc(CSc3nc(C4CC4)n(-c4ccccc4)n3)o2)cc1,6.7%,49.8%[activator]
O=C(Cn1cc(SCc2ccccc2)c2ccccc21)N1CCCCCC1,54.0%[activator],84.4%[activator]
COc1ccc(CSc2nc3ncccc3[nH]2)cc1,-8.1%,61.0%[activator]
CC(=O)c1cccc(NC(=O)c2c(C)nn(-c3ccc(F)cc3)c2-n2cccc2)c1,11.8%,-1.7%
COC(=O)c1ccc(C)c(NC(=O)c2cc(=O)c3ccccc3o2)c1,-2.9%,8.0%
CCC(C)Sc1oc(-c2ccco2)nc1S(=O)(=O)c1ccc(Cl)cc1 (centres undefined),97.9%[activator],-14.7%
COC(=O)C1=C(C)Nc2nc3ccccc3n2C1c1ccc(OC)c(OC)c1 (centres undefined),5.7%,15.7%
Brc1ccccc1-c1nnc(CN2CCc3ccccc3C2)o1,52.3%[activator],30.8%[activator]
CC1CCC(N2CCC(=O)CC2)CC1 (centres undefined),-6.4%,-16.6%
COc1ccccc1Nc1cc(C(=O)NCCCN(C)c2ccccc2)c2ccccc2n1,12.7%,20.5%
COc1ccc(-c2nnc(SCC(=O)Nc3ccc(C)c(C)c3)s2)cc1,1.7%,25.8%
Cc1sc(NC(=O)CCC(=O)O)c(C(N)=O)c1-c1ccc(C(C)C)cc1,-7.9%,0.0%
Cc1ccc(NC(=O)C2(C#N)CCCC2)c(C)c1,6.6%,9.2%
C/C=C/Cn1c(SCCCCCCC)nc2c1c(=O)[nH]c(=O)n2C,-13.5%,-6.1%
CCCOc1ccc(NC(=O)c2cccc(Cl)c2)c2cccnc12,-12.9%,-2.3%
CCCOc1ccc(CNc2ccc(Oc3ccccc3)cc2)cc1,2.3%,0.0%
Cc1cccc(CNC(C(=O)O)C(C)C)c1 (centres undefined),-8.6%,-9.7%
CCN(c1ccccc1)S(=O)(=O)c1ccc(C(=O)Nc2nc3ccccc3[nH]2)cc1,2.6%,24.6%
Cc1c(-c2nnc(SCC(=O)Nc3ccccc3F)o2)nnn1-c1ccc(F)cc1,-3.3%,90.2%[activator]
Cc1nc(-c2ccc(S(=O)(=O)Nc3ccc(C)c(N(C)C)c3)cc2)co1,87.6%[activator],?

# Part of the list above in order of molar mass, rising.
SMILES,2A Renilla,StopGo FLuc
COc1ccc(CSc2nc3ncccc3[nH]2)cc1,-8.1%,61.0%[activator]
COc1ccc(-c2nnc(SCC(=O)Nc3ccc(C)c(C)c3)s2)cc1,1.7%,25.8%
CCC(C)Sc1oc(-c2ccco2)nc1S(=O)(=O)c1ccc(Cl)cc1 (centres undefined),97.9%[activator],-14.7%
Cc1c(-c2nnc(SCC(=O)Nc3ccccc3F)o2)nnn1-c1ccc(F)cc1,-3.3%,90.2%[activator]

# Other structures:
SMILES,2A Renilla,StopGo FLuc
CCc1nnc(NC(=O)c2nc(SCc3ccccc3C)ncc2Cl)s1,-2.2%,31.9%
CCCCC(CC)C(=O)Nc1cc(C)ccc1C (centres undefined),10.1%,17.5%
CCN(CC)S(=O)(=O)N1CCCC(c2nncn2C)C1 (centres undefined),-2.4%,-1.8%
CSc1ccc(CCNC(=O)c2c(C)nn(-c3ccc(F)cc3)c2-n2cccc2)cc1,48.3%[activator],0.0%
Cc1cc(C)cc(OCCn2c(CN(C)C(=O)c3ccco3)nc3ccccc32)c1,12.4%,6.5%
CCc1ccc(CNC(=O)CCC(=O)N2Cc3cccc(OC)c3Oc3ncccc32)cc1,-9.2%,-12.5%
Cc1ccccc1OCCn1c(CN2CCCCC2)nc2ccccc21,-4.7%,3.6%
CC(NC(=O)C1CCCCC1)c1ccccc1 (centres undefined),-0.6%,-6.9%
CN(Cc1ccccc1)S(=O)(=O)c1ccc(NC(=O)CN2CCN(c3ccc(O)cc3)CC2)cc1,-25.0%,-25.9%
CCOC(=O)c1ccc(NC(=O)c2cc3cc(C)ccc3n2C)cc1,2.5%,11.5%
CC(C)CNC(=O)C(C)SCc1coc(-c2ccc(Cl)cc2)n1 (centres undefined),?,?
Cc1ccc(CSc2nc3ccncc3n2Cc2nc(-c3ccccc3C)oc2C)cc1,-10.5%,124.2%[activator]
Cc1ccc(/C=C/S(=O)(=O)NCCC(=O)O)cc1,-9.2%,4.9%
COc1ccc(Cc2nnc(SCC(=O)c3ccc(Cl)cc3)n2CC(C)C)cc1,30.6%[activator],-2.8%
CC(C)CCNC(=O)CCC(=O)NNc1nc2ccccc2c2nc(-c3ccccc3)nn12,-5.4%,-5.0%
COc1cc(Cl)c(C)cc1NC(=O)Cn1ncc2c3ccccc3n(Cc3ccccc3)c2c1=O,?,-10.5%
CCc1ccccc1NC(=O)N1CC(CC)Oc2ccc(Cl)cc21 (centres undefined),-7.9%,-22.4%
O=C(Oc1ccc2cc(-c3ccc(Cl)cc3)c(=O)oc2c1)N1CCOCC1,9.1%,0.0%
O=C(N/N=C/c1ccsc1)c1ccc(-c2ccccc2)cc1,-0.2%,0.0%
CCCN(CCC)c1nn2c(=O)c(C(=O)NCc3cc(Br)ccc3OC)cnc2s1,-7.1%,-10.1%
COc1ccc(CNC(=O)CCc2c(C)c3cc4c(C)coc4cc3oc2=O)cc1,27.1%,18.4%
N#CCCn1cc(C(=O)N2CCOCC2)c(-c2cccc(Cl)c2)n1,14.1%,1.0%
COc1ccc(C(=O)COC(=O)c2ccc3c(c2)OCCO3)c(OC)c1,-8.2%,9.9%
N#C/C(=C/c1ccc(-c2ccc(F)cc2)o1)c1nc2ccccc2[nH]1,-5.7%,126.6%[activator]
Cc1cccc(NC(=O)c2cn(-c3ccccc3)nc2-c2ccccc2)c1C,15.9%,0.8%
COc1ccc(-c2noc(-c3ccc(N4CCN(c5ccc(OC)cc5)CC4)c([N+](=O)[O-])c3)n2)cc1,-5.2%,13.1%
COCCNC(=O)Cn1cc(C(C)=O)c2ccccc21,0.4%,2.5%
COc1ccc(CNC(=O)c2cc(Cl)ccc2O)cc1OC,-7.3%,-2.6%
